Source: PubChem BioAssay
H5N1 antiviral = MDCK cell protection from H5N1 avian flu; AID 740, 2007; inhibition, % at 50 µM; cytopathic effect, luminescence, 72 h; active compounds read high; no value below 0 was filed and about half of the inactive calls have no number; reference of the scale not given here; 96,000 tested, 0.07% active; in the data active = inhibition above about 25%
* hit, by the source's call; i = inactive. Only part of the results is shown; count on the stated rates, not on these rows.

| SMILES | H5N1 antiviral |
| --- | --- |
| COc1cc(-c2noc(-c3cccs3)n2)cc(OC)c1OC | i |
| Cn1c(CC(=O)Nc2ccccc2)nnc1SCC(=O)c1ccccc1 | i |
| CCOCCCNC(=O)C(NC(=O)c1ccc(=O)[nH]c1)c1ccccc1 (stereo not drawn) | 0.8 |
| Cc1nc(-c2ccc(C(=O)O)cc2)cs1 | i |
| COC(=O)c1ccc(C)c(NS(=O)(=O)c2ccc(NC(C)=O)cc2)c1 | i |
| O=c1cc(-c2ccco2)nc(-c2cccs2)o1 | i |
| COC(=O)c1ccccc1NC(=O)Oc1ccc(C(C)C)cc1 | i |
| Cc1cc(C)n(-c2nnc3n2N=C(c2ccccc2)CS3)n1 | 1.8 |
| N#Cc1nc(-c2ccccc2F)oc1NCCN1CCOCC1 | 3.0 |
| Cc1ccc(C(=O)Oc2oc(-c3ccco3)nc2C=Nc2ccc(Cl)cc2)cc1 | i |
| CC(=Nc1ccccc1)C1=C(O)CSC1=O | i |
| CCN1CCN(Cc2nc3c(c(=O)n(C)c(=O)n3C)n2Cc2cccc3ccccc23)CC1 | 1.2 |
| Cc1ccc(S(=O)(=O)N2C3C=CC(C3)C2C(=O)O)cc1 (stereo not drawn) | 0.6 |
| O=C(c1ccc(S(=O)(=O)N2CCCCCC2)cc1)N1CCC(CN2C(=O)c3cccc4cccc(c34)C2=O)CC1 | 0.9 |
| CN1CCc2nc(N)c(C#N)c(-c3ccccc3)c2C1 | 1.5 |
| COC(=O)C1=C(C)N=C2SC(C)C(=O)N2C1/C=C/c1ccccc1OC (stereo not drawn) | i |
| O=C(Cn1cc2c(n1)CCCCC2)N1CCc2ccccc21 | i |
| CSc1cccc(NC(=O)CN(Cc2ccc(Cl)cc2)S(C)(=O)=O)c1 | i |
| Cc1cccc(N2CCN(S(=O)(=O)c3cnc[nH]3)CC2)c1C | 0.6 |
| COc1ccc(C(=O)NC(=O)Nc2cc(C)ccn2)cc1 | i |
| O=C(c1cn(-c2ccccc2)nc1-c1cccnc1)N1CCCCC1 | 0.8 |
| CCn1c(SCc2nc(-c3ccccc3)no2)nc2ccccc21 | 1.1 |
| Cc1no[n+]([O-])c1COc1ccccc1/C=C1\NC(=S)NC1=O | 0.6 |
| CCOC(=O)N1CCC(NC(=O)c2cc3c(C)nc4ccccc4c3o2)CC1 | 0.9 |
| CNC(=O)c1ccc(-c2sc3nc(N4CCOCC4)c4c(c3c2N)CC(C)(C)OC4)o1 | 0.1 |
| Cc1ccc(C)c(NC(=O)CCn2nc(C)cc2C)c1 | 0.9 |
| O=c1c2[nH]c3ccc(F)cc3c2ncn1CCCN1CCOCC1 | 0.3 |
| COc1cc(C(=O)N(CCCO)Cc2cc3ccc(C)c(C)c3[nH]c2=O)cc(OC)c1OC | 1.0 |
| CCOc1ccccc1NC(=O)C1Cc2ccccc2CN1S(C)(=O)=O (stereo not drawn) | 1.4 |
| CC(C)CC(=O)N=C1SC2CS(=O)(=O)CC2N1CCc1ccccc1 (stereo not drawn) | 0.5 |
| COc1cccc(C(=O)NCCN2CCOCC2)c1 | i |
| CCOC(=O)Cc1csc(NC(=O)NC2(C(F)(F)F)Oc3cc(Cl)c(Cl)cc3O2)n1 | 2.3 |
| COC(=O)C1C(c2ccc(Cl)cc2)NC(c2ccc(Cl)cc2)C(C(=O)OC)S1(=O)=O (stereo not drawn) | i |
| Cc1cccc(-c2nnc(SCC(=O)NCc3ccc4c(c3)OCO4)n2C)c1 | 1.6 |
| CCCCc1nc2ccccc2c(NC(=O)CNC(C)(C)C)c1CCC | i |
| O=C(N/C(=C/c1cccs1)c1nc2ccccc2[nH]1)c1ccccc1 | i |
| C=CCn1c(C)c(C(C)=O)c(N2CCN(c3ccccc3)CC2)nc1=S | 0.1 |
| Cc1ccc(C(=O)NCC(C)(C)O)cc1 | i |
| COc1cccc(N2CC(O)=C(c3nc4ccccc4c(=O)[nH]3)C2=N)c1 | 0.6 |
| Cc1ccccc1C(=O)N1CCC(C(=O)Nc2ccc(F)cc2)CC1 | i |
| CCc1ccc(OCc2nnc(NC(=O)c3cccs3)s2)cc1 | i |
| Cc1ccc(C(=O)/C=C/Nc2ccc3c(c2)OCO3)cc1 | i |
| Cc1cc(C(=O)OCC(=O)Nc2cc(S(=O)(=O)N3CCOCC3)ccc2Cl)c(C)o1 | i |
| O=C(OCc1nnc(-c2ccccc2)o1)c1cc(=O)c2ccccc2o1 | i |
| Cc1csc(C(C#N)C(=O)c2cc3ccccc3o2)n1 (stereo not drawn) | 0.3 |
| O=C(NCCCN1CCOCC1)c1ccccc1-c1ccccc1 | 0.5 |
| O=C(Nc1nnc(C2CC2)s1)c1cc(S(=O)(=O)N2CCN(c3ccccc3)CC2)ccc1Cl | 0.4 |
| O=C1/C(=C\c2ccc3c(c2)OCO3)N2CCC1CC2 | i |
| COc1ccc(C(=O)N(CC2CCCO2)C(C(=O)NC2CCCC2)c2ccc(Cl)cc2)cc1OC (stereo not drawn) | 0.1 |
| O=C(O)c1ccc(F)c(S(=O)(=O)Nc2ccccc2Cl)c1 | i |
| CC(CN1CCOCC1)OC(=O)c1ccc2c(c1)OCCO2 (stereo not drawn) | 1.5 |
| COc1ccc(N(C(=O)Cn2nnc3ccccc32)C2(C(=O)NC3CCCC3)CCCCC2)cc1 | 2.1 |
| O=C(CN1CCN(Cc2ccccc2Cl)C1=O)NC1CCCCCC1 | i |
| C[n+]1cc[nH]c1SCC(=O)c1ccccc1 | 0.0 |
| Cc1cc(N2C(=O)CC(Cc3ccccc3)C2=O)no1 (stereo not drawn) | 1.6 |
| Cc1ccc(OCC(O)Cn2c(=N)n(CCN3CCCCC3)c3ccccc32)cc1 (stereo not drawn) | i |
| CC1CC(=O)NN=C1c1ccc(N(C)C)c([N+](=O)[O-])c1 (stereo not drawn) | 0.2 |
| CCCCn1nc(-c2ccccc2)c2nc3ccccc3nc21 | i |
| CSc1nc(Oc2cccc(C(F)(F)F)c2)cc(C(F)(F)F)n1 | 1.7 |
| COc1ccc(C(=O)NCc2ccc(-c3nc4ccccc4s3)cc2)cc1OC | 1.3 |

Some of these compounds in order of molecular weight, high to low.
| SMILES | H5N1 antiviral |
| --- | --- |
| Cc1ccc(OCC(O)Cn2c(=N)n(CCN3CCCCC3)c3ccccc32)cc1 (stereo not drawn) | i |
| COc1ccc(C(=O)NCc2ccc(-c3nc4ccccc4s3)cc2)cc1OC | 1.3 |
| CSc1nc(Oc2cccc(C(F)(F)F)c2)cc(C(F)(F)F)n1 | 1.7 |
| O=C(NCCCN1CCOCC1)c1ccccc1-c1ccccc1 | 0.5 |
| CC1CC(=O)NN=C1c1ccc(N(C)C)c([N+](=O)[O-])c1 (stereo not drawn) | 0.2 |
| Cc1cc(N2C(=O)CC(Cc3ccccc3)C2=O)no1 (stereo not drawn) | 1.6 |
| C[n+]1cc[nH]c1SCC(=O)c1ccccc1 | 0.0 |

(further entries)
| SMILES | H5N1 antiviral |
| --- | --- |
| CCOC(=O)C1=C(C)N=C2c3ccccc3C(=O)C2C1c1ccccc1 (stereo not drawn) | 0.9 |
| CCCOC(=O)CCCCC1SCC(NC(=O)OC)C1NC(=O)OC (stereo not drawn) | 0.6 |
| O=C(CNCCC1=CCCCC1)Nc1ccccc1N1CCCCC1 | i |
| CCCn1c(SCCc2ccccc2)nc2c1c(=O)[nH]c(=O)n2C | 0.1 |
| Cc1cc(C)n(C(=O)c2ccc(S(=O)(=O)N3CCCC3)cc2)n1 | 0.5 |
| COc1nnc(-c2ccc(N3CCOCC3)c(NC(=O)C3CCCCC3)c2)c2ccccc12 | 7.2 |
| CCCNC(=O)c1noc2c1CCc1ccccc1-2 | i |
| Cc1ccc(OCCN2C(=O)OC(C)(C)C2(C)O)cc1 (stereo not drawn) | i |
| Cc1onc(-c2ccccc2)c1C(=O)N/N=C(\N)COc1ccc(Cl)cc1 | i |
| CCOc1ncccc1C(=O)OCC(=O)c1ccc(Cl)s1 | 0.3 |
| COc1ccc(N2CCN(C(CNC(=O)c3ccc4c(c3)OCO4)c3cccnc3)CC2)cc1 (stereo not drawn) | 1.5 |
| COc1cccc(C2=NOC(C(=O)NC3CCCCC3)C2)c1 (stereo not drawn) | 0.1 |
| NC(=O)CCCC1=NS(=O)(=O)c2ccccc2N1 | 0.7 |
| CC(=O)C1=C(C)NC(SCc2cccc([N+](=O)[O-])c2)=C(C#N)C1c1ccco1 (stereo not drawn) | i |
| Cc1ccc(S(=O)(=O)N2CN3CCN(C3)C2)cc1 | i |
| O=C1CC(SCCO)C(=O)N1c1ccc(Oc2ccccc2)cc1 (stereo not drawn) | i |
| CCOC(=O)CNC(=O)COc1ccc(Cl)cc1Br | 0.4 |
| COC(=O)C1=CN(C2CC2)C=C(C(=O)OC)C1c1ccc(C(=O)OC)cc1 | 1.4 |
| N#Cc1cc(Cl)c(N2CCOCC2)cc1C#N | 0.3 |
| CCOc1cc(CNn2nnnc2N)cc(Cl)c1OCC(=O)NC(C)(C)C | 0.9 |
| COc1ccc(C2=NOC(C(=O)O)C2)cc1 (stereo not drawn) | i |
| COC(=O)C1=C(C)N=C2SC(C)C(=O)N2C1/C=C/c1ccccc1 (stereo not drawn) | i |
| CC(=O)NCCOc1nc(N(C)C)nc(N(C)C)n1 | 0.6 |
| CSc1nsc(SCC(=O)NC2CCCCC2)n1 | 2.8 |
| Cc1occc1-c1nnc(SCC(=O)N(C)CCC#N)n1N | i |
| Cc1cc(C)n(C(=O)CNC(=O)CCc2ccccc2)n1 | i |
| CCOC(=O)c1ccc(NC(=O)CN2C(=O)CSC2=O)cc1 | i |
| COc1ccc(N2CCN(C(=O)COc3ccc4ccccc4c3)CC2)cc1 | 1.6 |
| Cc1nc2ccccc2cc1O | i |
| CC1CCN(CCCn2c(=S)[nH]c3ccccc3c2=O)CC1 | 0.0 |
| CCOC(=O)C1CCN(C(=O)COc2ccc(Cl)cc2C)CC1 | 0.3 |
| CCn1c(=O)c(C(=O)NCCNCCO)c(O)c2ccccc21 | i |
| Clc1ccc(OCc2cc(-c3ccccc3)no2)cc1Cl | i |
| CCOc1ccccc1CNC(=O)C1CCCN(c2nc3ccccc3o2)C1 (stereo not drawn) | i |
| CCSC1=N/C(=C\c2ccc(C(=O)O)cc2)C(=O)S1 | i |
| OC(CN1C2=NCCN2c2ccccc21)c1ccc2c(c1)OCO2 (stereo not drawn) | 1.3 |
| Cc1cc(C)c2c(CC(=O)Nc3nccs3)coc2c1 | 0.2 |
| Nc1cc(N)nc(SCCOc2ccccc2F)n1 | i |
| O=C1NC(Cc2c[nH]c3ccccc23)C(=O)N1CCOc1ccccc1 (stereo not drawn) | i |
| CC(/C=N/NC(=O)c1ccncc1)=C\c1ccccc1 | i |
| CCc1nnc(N/N=C/c2ccccc2Cl)n1N | i |
| CCc1c(C(=O)Nc2ccc(S(=O)(=O)N3CCOCC3)cc2)csc1C | i |
| CCc1nc2ccccc2c(NC(=O)CN2CCC(C)CC2)c1C | 1.0 |
| Nc1nnc(-c2ccc(Cl)cc2)s1 | i |
| O=S(=O)(NCCOCC(F)(F)C(F)F)c1ccc2oc3ccccc3c2c1 | 0.8 |
| Cn1c(CN2CCCC2)nc2cc(NC(=O)c3ccco3)ccc21 | i |
| Cc1c(NS(=O)(=O)c2ccc3c(c2)CCN3C(=O)C2CC2)c(=O)n(-c2ccccc2)n1C | i |
| c1ccc(C2CC3CC(c4ccco4)N2O3)cc1 (stereo not drawn) | 2.0 |
| COc1ccc(S(=O)(=O)c2ccc(OC)cc2)cc1 | 1.0 |
| O=C(Nc1c(C(=O)Nc2ccccc2)cnn1-c1ccccc1)c1ccco1 | i |
| Cc1ccc(C(=O)Nc2ccc3c(c2)OCCO3)o1 | 1.0 |
| CCCCNc1cc(C)oc(=O)c1C(C)=O | i |
| Cc1ccc(S(=O)(=O)N(C)CC(=O)Nc2cccc(C)n2)cc1 | 0.7 |
| O=C(Nc1cc(C(F)(F)F)ccc1N1CCOCC1)c1ccc(Br)o1 | i |
| COc1cccc(C2OC(=O)c3ccccc3N2C(C)=O)c1OC(C)=O (stereo not drawn) | i |
| O=C(O)CCc1ccc(-c2ccccc2)n1CC(=O)O | i |
| Cc1noc(/C=C/c2ccco2)c1S(=O)(=O)N1CCC(C(=O)N2c3ccccc3CC2C)CC1 (stereo not drawn) | i |
| CCc1ccc2oc(-c3cc(N=Cc4cccc(OC)c4O)ccc3O)nc2c1 | i |
| N#Cc1c(-c2ccco2)nc(NCC2CCCO2)[nH]c1=O (stereo not drawn) | 0.9 |
| CCN1CCN(C(=O)c2sc3nc(C)nc(N4CCC(C)CC4)c3c2C)CC1 | 1.6 |

Reformatted: results already given
structure: CCc1nc2ccccc2c(NC(=O)CN2CCC(C)CC2)c1C
  H5N1 antiviral: 1.0
structure: O=C(Nc1cc(C(F)(F)F)ccc1N1CCOCC1)c1ccc(Br)o1
  H5N1 antiviral: i
structure: Cc1ccc(S(=O)(=O)N(C)CC(=O)Nc2cccc(C)n2)cc1
  H5N1 antiviral: 0.7
structure: Cc1noc(/C=C/c2ccco2)c1S(=O)(=O)N1CCC(C(=O)N2c3ccccc3CC2C)CC1 (stereo not drawn)
  H5N1 antiviral: i

Other compounds follow:
| SMILES | H5N1 antiviral |
| --- | --- |
| CCn1c(COc2cccc(C)c2)nnc1SCC(=O)CC(=O)Nc1ccccc1OC | i |
| COc1cccc(C(C(=O)NC(C)(C)C)N(C(=O)CCC(=O)Nc2cc(C)on2)C2CC2)c1OC (stereo not drawn) | 1.5 |
| CCOC(=O)c1c(C)[nH]c2c1cc(O)c1ccccc12 | 0.2 |
| Cc1cccn2c(=O)c3cc(C(=O)N4c5ccccc5CC4C)n(C)c3nc12 (stereo not drawn) | i |
| Cn1c(SCC(=O)Nc2ccccc2)nc(O)cc1=O | i |
| Cc1nc2scc(-c3ccco3)c2c(=O)n1/N=C/N(C)C | 25.3* |
| Nc1c(C(=O)c2ccc(Br)s2)oc2ccccc12 | i |
| Cc1cc(C)c(C#N)c(SCC(=O)N2CCCCC2)n1 | 1.2 |
| COCCCN1C(=O)C(=O)/C(=C(/O)c2ccc(OC)cc2)C1c1cccc(OC)c1 (stereo not drawn) | 1.0 |
| Clc1ccccc1OCCn1ccnc1 | i |
| COc1cccc(C2C3=C(CC(C)(C)CC3=O)Nc3cc4c(cc32)OCO4)c1 (stereo not drawn) | 2.0 |
| COC(=O)COc1cc(C)cc2oc(=O)c3c(c12)CCCC3 | i |
| S=c1[nH]nc(-c2ccccc2)n1/N=C/c1cccs1 | i |
